# Screening data: PubChem, National Center for Advancing Translational Sciences (NCATS)
# VDR inh = blocks the human vitamin D receptor. 0.93% of 400,000 active. P11473. VDR-SRC2-3 peptide fluorescence polarization, 2 h. Potency, µM, without a hit: max response, negative = inhibition, most hits filed as inhibitors; active = well fitted inhibition curve with a large enough effect; inconclusive = small, poorly fitted or top-dose-only effect, or another doubt; inactive = no such curve, though single readings can be large or run the other way; note: series mostly up to about 120 µM
# Target sequence (P11473 whole entry, looked up): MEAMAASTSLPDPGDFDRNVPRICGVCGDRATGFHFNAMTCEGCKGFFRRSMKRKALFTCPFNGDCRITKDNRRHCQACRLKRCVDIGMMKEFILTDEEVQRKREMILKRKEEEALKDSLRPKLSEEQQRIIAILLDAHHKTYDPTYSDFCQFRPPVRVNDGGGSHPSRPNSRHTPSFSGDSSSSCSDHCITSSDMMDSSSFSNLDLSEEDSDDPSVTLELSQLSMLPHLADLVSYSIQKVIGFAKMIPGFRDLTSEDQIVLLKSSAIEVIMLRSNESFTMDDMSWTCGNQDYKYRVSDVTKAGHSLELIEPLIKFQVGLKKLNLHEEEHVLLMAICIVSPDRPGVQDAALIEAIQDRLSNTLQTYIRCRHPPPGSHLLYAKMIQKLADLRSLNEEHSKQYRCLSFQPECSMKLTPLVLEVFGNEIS
#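 The screen uses fluorescence polarization to detect compounds that interfere with recruitment of the SRC2-3 coactivator peptide to VDR; plates are read after 2 h at room temperature.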
# An asterisk follows results filed as active; ? = inconclusive. % is set by controls: 0 for no effect and ±100 for the full control effect; potency is the fitted concentration of half-maximal effect. This is a subset (hit frequency here may not be typical).
VDR inh	SMILES
7%	Cc1ccc(/C=N/NC(=O)c2nnn(-c3nonc3N)c2-c2ccc3c(c2)OCO3)s1
10%	O=C1c2cccc3cc(Br)cc(c23)C(=O)N1Nc1ccc(Br)cc1
-9%	CCn1c(SCC(=O)Nc2cc(C)on2)nnc1-c1ccco1
-9%	O=C(Nc1ccc(Cl)c(S(=O)(=O)N2CCOCC2)c1)C1=NN(c2ccccc2)C(=O)CC1
6%	O=c1c2c(nc3cc(-c4cccc(Cl)c4)[nH]n13)CCC2
-7%	Cc1ccc(NP(=O)(c2ccc(N(C)C)cc2NC(=O)c2cccs2)N2CCOCC2)cc1 (centres undefined)
9%	CC(=O)CC(C)(C)NC(C)=S
-4%	Cn1c(C(=O)N2CCCC(C(=O)NCc3ccccc3)C2)cc2sccc21 (centres undefined)
-9%	COc1cccc(C(=O)NN2CC(O)=C(c3nc(C)cs3)C2=N)c1
-22%	CCOc1ccc([C@@H]2CC=C(C(=O)O)[C@H](c3ccc(Cl)cc3)N2S(=O)(=O)c2ccc(C)cc2)cc1
10%	Cc1ccc(S(=O)(=O)NCC(=O)OCC(=O)NCc2ccc(F)cc2)cc1
-6%	CO/N=C1\CCn2c1c(C)c1ccccc12
-30%	O=C(/C=C/c1cccc(F)c1)c1ccc(N2CCOCC2)cc1
12%	COc1ccccc1CNC(=O)C(=O)NCCC1CCCCN1S(=O)(=O)c1cccs1 (centres undefined)
-1%	COc1ccc(/C=C(\C#N)C(=O)NCCCn2ccnc2)cc1
1%	Cc1cc(C)c2c(c1)cc(C)c1nnc(SCC(=O)Nc3cc(C)on3)n12
-14%	Cc1ccc(S(=O)(=O)Nc2cc(C)cc(CCNC=O)c2C)cc1
-9%	COc1ccc(S(=O)(=O)N2CCN(C(=O)c3c(C)nn(-c4ccccc4)c3Cl)CC2)cc1
11%	Cc1ccc(NC(=O)CSc2nc(=O)n(CCCN3CCOCC3)c3c2CCCC3)cc1F
-13%	O=S(=O)(Cc1cc(NCc2ccccc2)nc(-c2ccncc2)n1)c1ccccc1
-12%	COCC(=O)NCCc1ccc(S(N)(=O)=O)cc1
-1%	CCCn1c(=O)c(C(=O)NCc2ccccc2Cl)c(O)c2ccccc21
-18%	CC(=O)N1CCN(c2nc(CC(C)C)c3c(c2C#N)CCC3)CC1
8%	CC(C)(C)C(=O)Nc1nnc(-c2ccncc2)o1
-4%	C=CCCCCCCCCCCCC(O)CC(O)CO (centres undefined) (tested in a mixture with another compound)

# As entered above:
# `Cc1cc(C)c2c(c1)cc(C)c1nnc(SCC(=O)Nc3cc(C)on3)n12` in VDR inh has 1%
# `CCOc1ccc([C@@H]2CC=C(C(=O)O)[C@H](c3ccc(Cl)cc3)N2S(=O)(=O)c2ccc(C)cc2)cc1` in VDR inh has -22%

# Carrying on.
VDR inh	SMILES
-10%	COC(=O)c1sc2nc(C)c([N+](=O)[O-])c(C)c2c1N
7%	COc1cc(CCC(=O)Nc2cnc3ccccc3c2)cc(OC)c1OC
-10%	CN1C(=O)C(CC(=O)NC2CCCCC2)N(C)C1=O (centres undefined)
15%	CCOc1ccc(-c2cc(-c3nc(-c4cc(OC)c(OC)c(OC)c4)no3)[nH]n2)cc1Cl
13%	Cc1ccc(NCc2cccn2-c2nnc(N3CCC(C(=O)NC(C)C)CC3)s2)cc1
-5%	Cc1ccc(S(=O)(=O)Oc2ccccc2N2C(=O)C3CC=CCC3C2=O)cc1 (centres undefined)
-9%	CCCCCCC1CC(/C(C)=N\NC(N)=O)OC1=O (centres undefined)
-1%	CC1(C)C2CC=C(/C=N/NC(=O)C3CC3)C1C2 (centres undefined)
-4%	Cc1ccc(S(=O)(=O)n2nccc2-c2c(-c3ccccc3)noc2C)cc1
-11%	COc1ccccc1NC(=O)c1sc2nc(C)c(C(=O)Nc3ccc(C)cc3C)c(-c3ccc(C)o3)c2c1N
-9%	CC(C)c1ccc(N2C(=O)CSC23C(=O)N2CCCc4cccc3c42)cc1 (centres undefined)
-5%	COc1ccc(CC(=O)N2CC3(C)CC2CC(C)(C)C3)cc1 (centres undefined)
-4%	CCn1cc(C(=O)NCC(C)C)c(=O)c2cc(F)c(N3CCN(C(=O)c4ccco4)CC3)cc21
8%	Cc1c(Cc2ccccc2)c(=O)oc2cc(O)ccc12
-6%	COc1ccc(C(C(=O)Nc2ccc(C(C)C)cc2)N(Cc2ccco2)C(=O)CC2NC(=O)NC2=O)cc1 (centres undefined)
13%	COc1ccc(Cn2nnnc2C(c2ccccc2Cl)N2CCN(C3CCCC3)CC2)cc1 (centres undefined)
1%	O=C(Nc1ccc(N2CCN(C(=O)c3ccco3)CC2)cc1)c1cccs1
-15%	Cc1cc(C(=O)N/N=C/c2cccc(OC(=O)c3cccc(Br)c3)c2)n[nH]1
-11%	CCCCn1c2nc3ccccc3nc2c2c(=N)oc(C)nc21
-3%	Cc1cc(OCC(=O)Nc2ccc(CN3CCOCC3)cc2)c2c(C)c(C)c(=O)oc2c1
4%	COc1ccc(C)cc1S(=O)(=O)Nc1ccc(-n2c(C)nc3ccccc3c2=O)cc1
-7%	CCCC(=O)NCc1ccccc1Cl
-19%	CCCOc1ccc(/C(O)=C2/C(=O)C(=O)N(c3cc(C)on3)C2c2ccc(C(=O)OC)cc2)cc1 (centres undefined)
19%	COc1ccccc1CC(=O)Nc1ccc([N+](=O)[O-])cc1O
6%	CC(N)=NCCCC[C@H](N)C(=O)O

# Quoted at random: 4 records from the list, in no set order.
VDR inh	SMILES
-5%	COc1ccc(CC(=O)N2CC3(C)CC2CC(C)(C)C3)cc1 (centres undefined)
-9%	CC(C)c1ccc(N2C(=O)CSC23C(=O)N2CCCc4cccc3c42)cc1 (centres undefined)
8%	Cc1c(Cc2ccccc2)c(=O)oc2cc(O)ccc12
15%	CCOc1ccc(-c2cc(-c3nc(-c4cc(OC)c(OC)c(OC)c4)no3)[nH]n2)cc1Cl

# Additional compounds follow:
VDR inh	SMILES
20%	CCc1ccc(OCC(=O)OC(C)C(=O)Nc2ccc(Cl)cn2)cc1 (centres undefined)
-21%	Cc1cc(OCC(=O)Nc2ccncc2)c(C)cc1Br
-11%	CCCCN(CC)S(=O)(=O)N1CCC(C(=O)NCCCN2CCOCC2)CC1
9%	O=C(COC(=O)CNC(=O)c1ccc([N+](=O)[O-])o1)Nc1ncc(Cl)cc1Cl
-2%	COc1cccc2c1C(=O)c1c(O)c3c(c(O)c1C2=O)C[C@](O)(C(C)=O)C[C@H]3O[C@@H]1C[C@@H](N)[C@@H](O)[C@@H](C)O1
1%	C[C@@H](C(=O)NCc1ccccc1)[C@@H]1C[C@@]1(C)[C@@H](NC(=O)OCc1ccccc1)c1ccccc1
-12%	CCOCCCn1c(SCC(=O)Nc2cc(OC)ccc2OC)nc2ccccc2c1=O
-11%	CC(=O)Nc1ccc(C(=O)N(C)C(C(=O)Nc2ccc(C)cc2)c2ccccn2)cc1 (centres undefined)
-2%	COc1ccc(C(=O)Nc2ccc(C(=O)N3CCOCC3)cc2)cc1OC
3%	CCOC(=O)C1=C(CC)Nc2ccccc2N=C1NC(=O)Nc1ccc(Cl)c(Cl)c1
0%	CCCc1cc(=O)oc2c(CN3CCCC3)c(O)ccc12
-1%	CC(=O)c1cccc(NC(=S)NC2CCCCC2)c1
-22%	CC(C)N(C(=O)[C@H]1CC(CC(=O)NCCc2ccccn2)C(=O)N2CCc3c([nH]c4ccccc34)[C@]12C)C(C)C (some centres undefined)
8%	CC(=O)Nc1nonc1-c1nnc(SCc2cccc(Br)c2)n1C
5%	O=c1oc2ccccc2c(NC2CCCCC2)c1NS(=O)(=O)c1ccc(Br)cc1
-10%	S=C(NCc1cccs1)Nc1ccccc1
-15%	COc1cccc(CNC(=O)CCC(=O)N2CCOCC2)c1
8%	COc1ccc(CN(C)S(=O)(=O)c2ccc3c(c2)OCCO3)cc1
-12%	CCOC(=O)C1CCCN(c2oc(-c3ccc(OC)cc3)nc2C#N)C1 (centres undefined)
-5%	CC(C)n1ncc2c(C(=O)NCCc3ccc(S(N)(=O)=O)cc3)cc(C3CC3)nc21
0%	Cc1cc(Cl)ccc1OCC(=O)Nc1ccccc1CO
-18%	O=C(c1cc(C2CC2)nn1-c1ccccc1)N1CCN(S(=O)(=O)c2c(F)cccc2F)CC1
-14%	N#C/C=C1/NC(=O)c2ccccc2S1
-17%	CCC(Sc1ncc(S(=O)(=O)c2ccc(C)cc2)c(=O)[nH]1)C(=O)Nc1cc(C)ccc1C (centres undefined)
1%	Clc1ccc(OCCSc2ncccn2)c(Br)c1
8%	COc1ccc(NS(=O)(=O)c2ccc(N3CC(O)=C(c4ccccc4)C3=N)cc2)cc1
-10%	COCCNC(=O)c1cc(-c2ccc(OC)c(OC)c2)on1
-8%	CCN1CCN(C(=O)CSc2cc(=O)n(C)c3ccccc23)CC1
6%	COc1cc(C(=O)NCc2nnc(SCC(=O)N3CCCC3)o2)cc(OC)c1OC
-7%	CCCCOc1ccc(NC(=O)CN2CCN(CC)CC2)cc1
-21%	O=C1c2ccccc2C(=O)c2c(NCc3cccnc3)cccc21
14%	COc1cc(C2NC(=O)NC(C)=C2C(=O)OC2CCCCC2)cc(Br)c1O (centres undefined)
5%	CCOC(=O)N1CCN(C(=O)CSc2nc3ccccc3c(=O)n2-c2ccccc2)CC1
-14%	O=C(NCCc1ccc2c(c1)OCCO2)c1ccc(F)cc1
30%	CCS(=O)(=O)Nc1cccc(C2=NN(S(=O)(=O)c3ccccc3)C(c3ccco3)C2)c1 (centres undefined)
-23%	CC(C)(C)C(=O)N(Cc1ccc(Cl)cc1)Cc1cccnc1
-7%	COc1ccc(CNc2nc3c(-c4ccc(C)cc4)nnn3c3ccccc23)cc1
?	COc1cc(-c2ccc(N=Nc3ccc4c(S(=O)(=O)O)cc(S(=O)(=O)O)c(N)c4c3O)c(OC)c2)ccc1N=Nc1ccc2c(S(=O)(=O)O)cc(S(=O)(=O)O)c(N)c2c1O
-1%	C[C@@H]1CCC(=O)N(CC[C@H](N=[N+]=[N-])c2ccccc2)CC1
10%	Cc1nc2cc(C(=O)NCCC3=CCCCC3)ccc2n1-c1ccc(Br)cc1
-6%	CCN(CC(=O)Nc1ccccc1SC)Cc1nc2ccccc2c(=O)[nH]1
-5%	Cc1ccc(CSCCNC(=O)CSCc2ccc([N+](=O)[O-])cc2)cc1
1%	Cc1ccc(-c2nc(-c3ccccc3)no2)cc1
-8%	CCOC(=O)c1cn2nc(SCc3ccccc3)nc2nc1C
-8%	COc1ccc(OCc2cn3c(C)cc(C)nc3n2)cc1
16%	Cc1c(Cl)cccc1NC(=O)Cn1cc(C(F)(F)F)cc(Cl)c1=O
-15%	O=C(CN1CCCC1)Nc1cccc(Cl)c1
-8%	CC(=O)N1c2ccc(S(=O)(=O)N3CCCC(C(=O)NC4CCCC(C)C4C)C3)cc2CC1C (centres undefined)
0%	O=C(CSc1nnc(NC(=O)c2ccco2)s1)Nc1cccc(F)c1
-1%	O=C(COC(=O)c1ccc(F)cc1F)NCCC1=CCCCC1

# The listing continues.
VDR inh	SMILES
-9%	CCOC(=O)CNC(=O)CSc1ncnc2c1cnn2-c1ccc(C)cc1
10%	Cc1ccc(Nc2nc(NCCO)c3ccccc3n2)cc1C
5%	CCOC(=O)c1nnc(-c2cccs2)nc1NC(C)C
-20%	CC12CC3CC(C)(C1)CC(C(=O)N1CCCC1)(C3)C2
13%	CN(C)C(CNc1ncccn1)c1ccccc1 (centres undefined)
5%	Cc1cc(O)ccc1NC(=O)Cc1cccc2ccccc12
-5%	COc1cc(C(=O)N2CCN(c3ccc([N+](=O)[O-])cc3)CC2)ccc1OCc1c(C)noc1C
-3%	CC(=O)c1ccc(N2CCN(C(=O)C3CCN(S(=O)(=O)c4ccc(Br)s4)CC3)CC2)cc1
-21%	Cc1noc(NS(=O)(=O)c2ccc(NC(=O)c3oc4ccc(F)cc4c3C)cc2)c1C
-7%	Cc1ccc(C(=O)N2CCN(C)CC2)cc1S(=O)(=O)N1CCCCCC1
-12%	Cc1cc(C(=O)N/N=C/c2ccccc2Br)no1
-4%	O=C(CSc1nc2c(cnn2-c2ccc(F)cc2)c(=O)[nH]1)Nc1ccc(Br)cc1
-6%	CN(CC(=O)Nc1c(Cl)cccc1Cl)C(=O)CCC1CCCC1
-5%	CC(C)NC(=O)C1CCC(Cn2c(=O)c3sccc3n(Cc3ccc(F)cc3)c2=O)CC1 (centres undefined)
-23%	Fc1ccccc1CSCc1nc2ccccc2[nH]1
10%	CC(C)c1ccc(C(=O)CSc2n[nH]c(-c3ccncc3)n2)cc1
-1%	Cc1cccc(OCC(=O)Nc2cc(C)c(C)cc2O)c1
-18%	O=C(COC(=O)CNC(=O)c1cccc(OC(F)F)c1)NCc1ccc2c(c1)OCO2
-15%	CSc1nc(-c2ccccc2)nc(C(Cl)Cl)n1
-2%	Cn1ccnc1SCC(=O)c1ccc(C#N)cc1
-3%	CCn1nc(CC(=O)O)c2ccccc2c1=O
-9%	Cc1cc2occ(CC(=O)NCc3cccs3)c2cc1C(C)C
35µM*	CSc1sc2ccccc2[n+]1CCCS(=O)(=O)[O-]
5%	O=C(O)c1cc(S(=O)(=O)NCC2COc3ccccc3O2)ccc1Cl (centres undefined)
0%	CC(C)(C)n1nc2c(c1NC(=O)COc1ccc(Cl)cc1)CSC2
-4%	Cc1nc(-c2ccc(C)c(N3CCN(C(=O)Nc4ccc(Br)cc4)CC3)c2)no1

# Arranged by length of the SMILES (smallest number first): three of the compounds above.
VDR inh	SMILES
-3%	CCn1nc(CC(=O)O)c2ccccc2c1=O
-2%	Cn1ccnc1SCC(=O)c1ccc(C#N)cc1
35µM*	CSc1sc2ccccc2[n+]1CCCS(=O)(=O)[O-]

# Records listed so far marked active in VDR inh:
VDR inh	SMILES
35µM*	CSc1sc2ccccc2[n+]1CCCS(=O)(=O)[O-]
